SMN2 splice up: SMN2 splice variant enhancement; HEK293 SMN2-luciferase splicing reporter, luminescence, 30-36 h; Potency, µM (series often up to 46.1 µM), inactives show at the top dose activity change, positive = activation, most hits filed as activators; 2.8% of 210,000 active; AID 1458; note: potency is the fitted concentration of half-maximal effect; % of control where 0% means no effect; nearly all actives have a fitted effect of over 55% in size
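qHTS luciferase splicing reporter: luminescence rises when SMN2 exon 7 is included in transfected HEK293 cells. Compound exposure lasted 30-36 h at 37C, with 4.5 mM final sodium butyrate as control, followed by a ONE-Glo read.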
KinaseGlo FLuc: Kinase-Glo luciferase inhibition (counter-screen); AID 1379; Q27757; Kinase-Glo luciferase, ATP luminescence, 8 min; 0.28% of 200,000 active; Potency, µM (top dose mostly 38.3 µM), for inactives: at the top dose activity change, negative = inhibition, usual class: inhibitors; note: potency is the fitted concentration of half-maximal effect; % is set by controls: 0 for no effect and ±100 for the full control effect; nearly all actives have a fitted effect of over 60% in size
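Inhibition of Kinase-Glo luciferase light generation was assessed at 10 uM ATP in pH 7.2 imidazole buffer, with luminescence measured after eight minutes at ambient temperature.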
HttQ103 aggreg: mutant huntingtin aggregation inhibition. AID 1688. 1.1% of 220,000 active. Potency, µM (doses to about 46.1 µM), for the others: top-dose activity change, negative = inhibition, usual class: inhibitors. PC12 HttQ103-GFP aggregates, Acumen cytometry, 40 h; note: potency is the fitted concentration of half-maximal effect; % is set by controls: 0 for no effect and ±100 for the full control effect; nearly all actives have a fitted effect of over 60% in size
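PC12/HTTQ103-GFP, ecdysone-inducible; teb 100 nM; cpd qHTS titration; GFP aggregates read on laser cytometer, Ex 488/Em 500-530 nm.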
CBFb RUNX1 block: blocks binding between human CBF-beta and RUNX1. Q01196+Q13951. AlphaScreen CBFb-His/RUNX1-biotin binding, biochemical. 230,000 tested, under 10 active. Potency, µM (top dose mostly 59.8 µM), inactives show at the highest dose activity, negative = inhibition, most hits filed as inhibitors; note: % of control where 0% means no effect
Target sequence (Q01196 whole entry, looked up): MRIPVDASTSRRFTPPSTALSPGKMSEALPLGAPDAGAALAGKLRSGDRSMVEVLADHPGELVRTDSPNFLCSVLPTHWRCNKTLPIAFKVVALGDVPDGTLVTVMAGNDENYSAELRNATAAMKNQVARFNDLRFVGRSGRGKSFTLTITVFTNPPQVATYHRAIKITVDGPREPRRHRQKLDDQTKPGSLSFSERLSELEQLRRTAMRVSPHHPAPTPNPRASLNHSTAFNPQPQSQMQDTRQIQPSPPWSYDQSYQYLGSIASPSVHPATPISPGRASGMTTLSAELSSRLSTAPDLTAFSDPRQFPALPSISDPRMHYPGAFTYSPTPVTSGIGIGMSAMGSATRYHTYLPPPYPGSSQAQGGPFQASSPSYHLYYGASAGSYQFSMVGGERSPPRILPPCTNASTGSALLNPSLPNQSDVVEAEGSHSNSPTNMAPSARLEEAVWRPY
Target sequence (Q13951 whole entry, looked up): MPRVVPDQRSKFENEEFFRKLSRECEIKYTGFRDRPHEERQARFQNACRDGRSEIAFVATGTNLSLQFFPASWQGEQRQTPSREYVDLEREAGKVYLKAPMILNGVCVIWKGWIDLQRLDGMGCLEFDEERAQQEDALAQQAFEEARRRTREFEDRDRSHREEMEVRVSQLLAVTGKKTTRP
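Read-out: AlphaScreen. Format: His-CBF-beta with biotinylated RUNX1 (30 nM each) preincubated 20 min, compound 15 min, Ni-chelate plus streptavidin beads 90 min; room temperature throughout.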
HTT cytoprotect: protects HTT-Q103 PC12 cells, measured by ATP; 0.14% of 230,000 active; AID 1471; Potency, µM (titrated, usually from 56.4 µM), inactives show cytoprotection (ATP increase), most hits filed as activators; PC12 HTT-Q103 induced, cytoprotection, ATP luminescence, 40 h;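 note: potency is the fitted concentration of half-maximal effect; % of control where 0% means no effect; nearly all actives have a fitted effect of over 45% in size; toxic huntingtin expression switched on by the ecdysone agonist tebufenozide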
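Rat PC12, Q103 Htt exon1-GFP fusion, ecdysone promoter; tebufenozide inducer 100 nM final; compound titration; qHTS, 1500 cells/well; ATPlite luminescent read.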
LMNA splice mod: LMNA splicing modulation. HeLa LMNA splicing GFP/RFP minigene ratio, 48 h. Potency, µM (top dose mostly 46.1 µM), for inactives: at the highest dose ratio change, negative = inhibition, hits mostly inhibitors. 0.01% of 200,000 active. AID 1487; active = well fitted inhibition curve with a large enough effect in the signal ratio, with a control signal flat, not every such curve was filed as active; inconclusive = small, poorly fitted or top-dose-only effect, or effect the other way, or a change in a side signal; the % refers to the signal ratio; note: potency is the fitted concentration of half-maximal effect; % is set by controls: 0 for no effect and ±100 for the full control effect
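S3 HeLa cells stably expressing lamin A-EGFP splicing minigene plus DsRed2, 600 cells/well, 48 h compound exposure at 37C. Laser-scanning cytometry; analysed as GFP (500-530 nm)/RFP (575-640 nm) total intensity ratio; 0.5% DMSO vehicle.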
* hit, by the source's call; u = inconclusive; x = not tested or not shown; [ ] = dose if it differs, or a comment. Unless noted, calls come from the whole dose curve; as a rule, active = well fitted curve in the direction sought with a large enough effect; inconclusive = small, poorly fitted or top-dose-only effect, or another doubt; inactive = no such curve, though single readings can be large; an effect the other way counts as inactive or inconclusive.

Labels used below: A = SMN2 splice up; B = KinaseGlo FLuc; C = HttQ103 aggreg; D = CBFb RUNX1 block; E = HTT cytoprotect; F = LMNA splice mod
Cc1cccc(N/N=C(\C(N)=O)C2=NC(C)(C)Cc3ccccc32)c1
  A: -44%[inhibitor]	B: 4%	C: u	D: -29%	E: -9%[10 µM]	F: u
O=C1N(c2ccc3c(c2)OCCO3)C(c2ccccc2)C1(F)F (configuration not stated)
  A: -3%	B: 2%	C: -5%	D: -4%	E: -25%	F: x
O=C1OC(/C=C/c2ccccc2)=NC/1=C/C=C/c1ccccc1
  A: -5%	B: -2%	C: 18%	D: -6%	E: 10%[10 µM]	F: 1%
NCCOc1ccc(C2CCCCC2)cc1
  A: -6%	B: 3%	C: -4%	D: 5%	E: -30%	F: x
Cc1c(C2C(C#N)=C(N)N(c3cccc([N+](=O)[O-])c3)C3=C2C(=O)CCC3)cnn1C (configuration not stated)
  A: x	B: 0%	C: -11%[9.22 µM]	D: 4%	E: 2%[10 µM]	F: u
CCN=C1S/C(=C\c2ccc(N3CCOCC3)cc2C)C(=O)N1CC
  A: -12%	B: -2%	C: 12%	D: 8%	E: 3%[10 µM]	F: u
CC1C(c2ccccc2)N(C)C(c2ccccc2)C(C)C1(O)C#Cc1ccccc1 (configuration not stated)
  A: -29%	B: 0%	C: 6%	D: 0%	E: -13%[1.9 µM]	F: -27%
O=C(O)COc1ccc(/C=N/Nc2nc(Nc3ccccc3)nc(N3CCCCC3)n2)cc1
  A: 11%	B: -2%	C: -13%	D: -2%	E: -95%[inhibitor]	F: 0%[46 µM]
O=C(CSc1n[nH]c(-c2ccccc2O)n1)N1CCOCC1
  A: 18%	B: -17%	C: -15%	D: -8%	E: -96%[inhibitor]	F: x
Cc1cc2ncn(/N=C/c3ccc([N+](=O)[O-])s3)c2cc1C
  A: -49%[inhibitor]	B: 1%	C: 21%	D: -3%	E: 1%[10 µM]	F: u
Fc1ccc(N2CCN(Cc3ccccn3)CC2)cc1
  A: -5%	B: -2%	C: 11%	D: 5%	E: -24%[10 µM]	F: u
O=C(Nc1ccncc1)c1ccc(-c2ccccc2)cc1
  A: -8%	B: 6%	C: 18%	D: -2%	E: -3%	F: -15%[46 µM]
COc1ccccc1CN1C[C@@H]2C[C@@H](c3ccc(C)c(C)c3)N3CCC[C@@]23C1=O
  A: x	B: 0%	C: -4%[9.22 µM]	D: -2%	E: -47%[inhibitor][10 µM]	F: x
Cc1cc(C)nc(NS(=O)(=O)c2ccc(N3C(=O)C4C5C=CC(C5)C4C3=O)cc2)n1 (configuration not stated)
  A: u	B: -1%	C: 11%	D: 3%	E: 15%[10 µM]	F: 2%
COc1ccc(C2NC3=C(CCC3)C3(C#N)C(OC)(OC)N=C(N)C23C#N)cc1 (configuration not stated)
  A: -6%	B: 2%	C: 8%	D: 9%	E: -11%	F: 0%

Compounds shown so far that have a cyano group, in the order listed:
Labels used below: A = SMN2 splice up; B = KinaseGlo FLuc; C = HttQ103 aggreg; D = CBFb RUNX1 block; E = HTT cytoprotect; F = LMNA splice mod
Cc1c(C2C(C#N)=C(N)N(c3cccc([N+](=O)[O-])c3)C3=C2C(=O)CCC3)cnn1C (configuration not stated)
  A: x	B: 0%	C: -11%[9.22 µM]	D: 4%	E: 2%[10 µM]	F: u
COc1ccc(C2NC3=C(CCC3)C3(C#N)C(OC)(OC)N=C(N)C23C#N)cc1 (configuration not stated)
  A: -6%	B: 2%	C: 8%	D: 9%	E: -11%	F: 0%

Following part
Labels used below: A = SMN2 splice up; B = KinaseGlo FLuc; C = HttQ103 aggreg; D = CBFb RUNX1 block; E = HTT cytoprotect; F = LMNA splice mod
O=C(CSc1nc(-c2cccs2)cc(C(F)(F)F)n1)NCCCn1ccnc1
  A: -11%	B: 0%	C: -22%	D: 1%	E: -22%[10 µM]	F: u
O=C(c1ccccn1)N1CC=C(c2ccccc2)CC1
  A: -5%	B: -1%	C: 6%	D: u	E: -19%	F: 17%[46 µM]
CCCCCCCC[n+]1c(C)n(-c2ccccc2)c2ccc(NC(C)=O)cc21
  A: -21%	B: 3%	C: 10µM*	D: 5%	E: -36%[inhibitor]	F: -22%[46 µM]
CC(=O)NCCOc1nc(N2CCCCC2)nc(N2CCCCC2)n1
  A: x	B: 0%	C: 11%[9.22 µM]	D: 3%	E: 0%[10 µM]	F: u
O=S(=O)(c1ccccc1)N1CCN(S(=O)(=O)c2ccccc2)c2ccccc21
  A: -3%[9.22 µM]	B: -2%[7.66 µM]	C: x	D: x	E: 20%[10 µM]	F: x
CCN(CC)S(=O)(=O)c1cc(NS(=O)(=O)c2cccc(Cl)c2)ccc1C
  A: 7%	B: 0%	C: -7%	D: -9%	E: 20%[10 µM]	F: u
C=CCOc1ccc(C2NC(=S)NC(C)=C2C(=O)c2ccccc2)cc1OC (configuration not stated)
  A: 3%	B: 3%	C: -23%	D: 2%	E: -29%[10 µM]	F: -5%
CC(C)CC(=O)NC1(C(F)(F)F)C(=O)N(CC(C)C)C2=C1C(=O)CC(C)(C)C2 (configuration not stated)
  A: 9%	B: 1%	C: -6%	D: 6%	E: -6%[10 µM]	F: 9%
COc1ccc(C(=O)OCC(=O)NC(C)(C)C)cc1[N+](=O)[O-]
  A: 9%	B: 0%	C: 21%	D: -2%	E: x	F: 2%
O=C(O)C1=C[C@@H](O)[C@@H](O)[C@H](O)C1
  A: x	B: -2%	C: x	D: 3%[21.7 µM]	E: 4%[1.9 µM]	F: x
COCC(C)n1c(C)cc(C(=O)CSc2ncccn2)c1C (configuration not stated)
  A: 11µM*	B: 0%	C: 0%[9.22 µM]	D: 0%	E: -6%[10 µM]	F: x
CCC1CCCCN1C(=O)Cn1nc([N+](=O)[O-])c(Cl)c1C (configuration not stated)
  A: 6%	B: -3%	C: -27%	D: 0%	E: -29%	F: 1%[46 µM]

Arranged by SMILES length (lowest first): 3 of the compounds above
Labels used below: A = SMN2 splice up; B = KinaseGlo FLuc; C = HttQ103 aggreg; D = CBFb RUNX1 block; E = HTT cytoprotect; F = LMNA splice mod
O=C(c1ccccn1)N1CC=C(c2ccccc2)CC1
  A: -5%	B: -1%	C: 6%	D: u	E: -19%	F: 17%[46 µM]
C=CCOc1ccc(C2NC(=S)NC(C)=C2C(=O)c2ccccc2)cc1OC (configuration not stated)
  A: 3%	B: 3%	C: -23%	D: 2%	E: -29%[10 µM]	F: -5%
CCN(CC)S(=O)(=O)c1cc(NS(=O)(=O)c2cccc(Cl)c2)ccc1C
  A: 7%	B: 0%	C: -7%	D: -9%	E: 20%[10 µM]	F: u

Compound activity deposited in PubChem BioAssay by National Center for Advancing Translational Sciences (NCATS).

The list is partial (hit frequency here may not be typical).
